From PubChem BioAssay
TRPV1 PAM = enhances activation of the human vanilloid receptor TRPV1 | Q8NER1 | TRPV1-expressing cells, Fluo-8 calcium influx, capsaicin EC20 potentiation; host cell line not named in the record; control for the full effect not named in the record | actives 0.02% (n = 320,000) | AID 540277 | potentiation, % at 8.33 µM; active means potentiation above 80%; inconclusive means 30% to 80%; inactive means below 30%; note: 0% is about no effect
Target sequence (Q8NER1 whole entry, looked up): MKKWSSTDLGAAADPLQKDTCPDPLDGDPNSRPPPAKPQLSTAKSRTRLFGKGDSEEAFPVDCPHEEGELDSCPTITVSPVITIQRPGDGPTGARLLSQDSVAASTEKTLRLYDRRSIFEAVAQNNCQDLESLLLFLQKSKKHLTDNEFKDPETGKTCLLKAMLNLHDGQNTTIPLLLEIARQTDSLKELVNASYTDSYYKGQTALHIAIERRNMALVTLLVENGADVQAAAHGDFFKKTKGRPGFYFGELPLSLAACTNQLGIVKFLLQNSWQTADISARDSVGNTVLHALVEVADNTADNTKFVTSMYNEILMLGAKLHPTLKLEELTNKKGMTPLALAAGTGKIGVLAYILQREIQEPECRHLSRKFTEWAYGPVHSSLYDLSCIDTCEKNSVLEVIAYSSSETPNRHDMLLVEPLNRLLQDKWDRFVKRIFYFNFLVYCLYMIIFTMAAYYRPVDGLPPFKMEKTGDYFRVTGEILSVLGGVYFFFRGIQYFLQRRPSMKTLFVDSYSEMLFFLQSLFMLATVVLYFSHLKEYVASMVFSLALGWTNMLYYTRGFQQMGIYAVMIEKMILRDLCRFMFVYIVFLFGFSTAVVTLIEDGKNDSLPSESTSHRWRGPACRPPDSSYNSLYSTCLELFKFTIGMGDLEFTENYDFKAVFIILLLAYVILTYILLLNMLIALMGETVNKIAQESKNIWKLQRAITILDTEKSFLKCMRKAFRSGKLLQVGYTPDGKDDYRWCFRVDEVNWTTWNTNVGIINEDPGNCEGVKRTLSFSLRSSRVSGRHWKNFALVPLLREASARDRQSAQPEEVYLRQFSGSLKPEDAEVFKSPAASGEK
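TRPV1-expressing cells were cultured overnight at 35.5C and loaded with Fluo-8 calcium dye for 40 to 90 min at room temperature. After a 10 s baseline, compound was added and calcium influx was read kinetically for 3 min (ex 480/em 520 nm).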
ClpP mod = qHTS Assay for Activators of ClpP; ATP-dependent Clp protease proteolytic subunit (Bacillus subtilis (strain 168)), P80244; actives 1.9% (n = 340,000); purified B. subtilis ClpP, FRET peptide cleavage, 20 min; Potency, µM (titrated, usually from 57.5 µM), for the others: at the highest dose activity change, negative = active; AID 651965, 2013; active = well fitted falling curve with a large enough effect; inconclusive = small, poorly fitted or top-dose-only effect; inactive = no such curve, though single readings can be large or run the other way; note: potency is the fitted concentration of half-maximal effect; the source files actives as falling curves though it sought activators and does not explain the sign; nearly all actives have a fitted effect of over 65% in size; many hits overshoot -100%
Target sequence (P80244 whole entry, looked up): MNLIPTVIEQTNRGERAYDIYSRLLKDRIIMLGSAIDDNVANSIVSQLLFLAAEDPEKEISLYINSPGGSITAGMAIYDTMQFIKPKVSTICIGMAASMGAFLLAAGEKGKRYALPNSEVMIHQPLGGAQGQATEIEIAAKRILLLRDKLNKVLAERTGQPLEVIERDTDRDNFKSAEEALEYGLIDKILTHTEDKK
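Buffer: 100 mM Tris/HCl pH8, 100 mM KCl, 0.05% low protease BSA, 2.5% glycerol, 0.01% Tween-20. ClpP 10 microg/mL final; 20 min RT; delta FRET normalized to ADEP and DMSO controls.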
TRPML1 ag = agonists of human TRPML1 channel; Q9GZU1; TRPML1-expressing cells, Ca2+ dye fluorescence, FDSS; host cell line not named in the record; reference of the full effect not given here; activation, % (no concentration beside the values); actives 0.12% (n = 410,000); AID 624414; in the data active = activation above about 50%; inconclusive = about 30% to 50%; inactive = below about 30%; note: 0% is about no effect; the text of the record puts the active cut at 80%
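Tetracycline-induced TRPML1-DL cells are seeded and incubated overnight before loading with a no-wash Ca2+ dye and quencher. Agonist activity is taken from the 110 s fluorescence read following compound pin-transfer on an FDSS, before EC80 54-4 challenge.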
Sfp PPTase inh = inhibitors of Bacillus subtilis Sfp phosphopantetheinyl transferase; Potency, µM, inactives show max response, negative = inhibition, usual class: inhibitors; Biochemical Sfp PPTase activity, qHTS; actives 3.5% (n = 310,000); active = well fitted inhibition curve with a large enough effect; inconclusive = small, poorly fitted or top-dose-only effect, or another doubt; inactive = no such curve, though single readings can be large or run the other way;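 note: the enzyme is Sfp with the accession as filed and its product quenches rhodamine fluorescence; potency is the fitted concentration of half-maximal effect; 0% = enzyme reaction without inhibitor and -100% = no enzyme wells; top concentration of the series not given in the record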
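Buffer: 50 mM Hepes-Na pH 7.6, 10 mM MgCl2, 0.01% Nonidet P-40, 0.01% BSA. Enzyme 15 nM, pre-exposed to compound 15 min; substrates then added and fluorescence change tracked over 30 min.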
Menin-MLL FL inh = menin-MLL binding inhibition, fluorescein peptide. Fluorescence polarization, fluorescein-MLL peptide displacement from menin. FP activity change, % at 61.4 µM. 290,000 tested, under 10 active; inconclusive = falling polarisation curve, or a change in total fluorescence; inactive = total fluorescence flat and polarisation flat or rising; no compound was filed as active; the % refers to the polarisation; negative = inhibition;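 note: % of control where 0% means no effect; inhibitors lower the polarisation; unlabelled MLL peptide was the positive control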
TRPML1 blocker = blocks the human TRPML1 channel; AID 624415; TRPML1-inducible cells, Ca2+ dye fluorescence, FDSS; stronger effect = lower value; inhibition of EC80 agonist-evoked calcium signal; activity change, negative = inhibition, % (test concentration not listed); actives 0.02% (n = 390,000); Q9GZU1; in the data active means activity change below about -50%; inconclusive means about -30% to -50%; inactive means above about -30%;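 note: stimulus is agonist 54-4 at its EC80 concentration; % is set by controls: 0 for no effect and ±100 for the full control effect; compound concentration not given in the record; the text of the record puts the active cut at -80%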
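TRPML1-DL cells, Tet-induced overnight (~16 h, 37 °C) at 1,500 cells/well, were loaded with Ca8 no-wash dye plus quencher for 45-90 min at room temperature. Compounds were pinned during FDSS kinetic reading; agonist 54-4 at EC80 (4 uM final) then added.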
PINK1 expr mod = modulators of PINK1 expression | PINK1 immunofluorescence, high-content cytometry, 24 h | Potency, µM (highest dose often 76.6 µM), without a hit: top-dose activation (PINK1 increase), most hits filed as activators | actives 0.2% (n = 410,000); active = well fitted activation curve with a large enough effect; inconclusive = small, poorly fitted or top-dose-only effect; inactive = flat fitted curve, though single readings scatter; cell line not stated here;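 note: potency is the fitted concentration of half-maximal effect; % of control where 0% means no effect; nearly all actives have a fitted effect of over 65% in size; a mitochondrial uncoupler was the plate control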
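PINK1 protein level read as immunofluorescence by microplate cytometer in a fixed, stained stable cell line after 24 h exposure to five compound concentrations, with CCCP as control.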
Active calls of the source: *; ? = inconclusive; nt = no result given; & = joins results of further samples; [ ] = another dose, or the depositor's remark.

SMILES	TRPV1 PAM	ClpP mod	TRPML1 ag	Sfp PPTase inh	Menin-MLL FL inh	TRPML1 blocker	PINK1 expr mod
CC1(C)CN2C(=S)N(c3ccccc3)C(c3ccccc3)N2C1 (stereo not drawn)	-8	-4.1%	1.1	6%	-1.3	24	-0.8%
Cc1ccccc1C(=O)Nc1c(C(=O)Nc2cccc(F)c2)oc2ccccc12	nt	?	1.6	nt	nt	-19	2.4%
CN(C)CCCN(C(=O)c1ccc(Br)s1)c1nc2ccc(F)cc2s1	nt	8.0%	0.1	nt	nt	-5	6.1%
CCc1cc(=O)oc2cc(OS(C)(=O)=O)ccc12	nt	?	-0.9	nt	nt	6	-1.0%
COc1ccc(-c2nc(CN3CCN(C(=O)c4ccco4)CC3)c(C)o2)c(OC)c1C	1	-5.8%	2.4	4%	2.4	-6	3.6%
CCOC(=O)c1ccc(-n2c(C)nc3ccc(Br)cc3c2=O)cc1	16	0.7%	-0.5	-2%	1.3	40	1.5%
COCCCNc1ncnc2onc(-c3ccc(F)cc3)c12	nt	5.6%	-0.1	nt	nt	6	-0.7%
COc1ccc2cc(C(=O)Nc3ccc(F)cc3)sc(=O)c2c1OC	23	?	-0.1	-7%	0.2	-11	9.5%
CCN(CC)C(=O)Cn1cc(C(=O)C(=O)Nc2ccc3c(c2)OCCO3)c2ccccc21	2	1.2%	0.9	0%	3.1	-27	9.6%
Cc1ccc(-c2nnc(Nc3cccc(Br)c3)c3ccccc23)cc1S(=O)(=O)N1CCN(C)CC1	nt	?	-0.7	nt	nt	-2	0.5%
Cc1cccc(N2CCN(S(=O)(=O)c3ccc4c(c3)CCC(=O)N4)CC2C)c1 (stereo not drawn)	-19	-0.6%	-0.3	20%	-0.7	-4	14%[38.3 µM]
COCCCNc1nc2nonc2nc1N1CCN2CCCC2C1 (stereo not drawn)	0	-2.0%	-0.4	-2%	-9.8	-6	-0.9%
CCN(Cc1nc(-c2ccc(OC)c(OC)c2)no1)C(=O)c1ccc2c(c1)OCO2	-8	-2.3%	-0.6	15%	-1.5	6	-1.8%
COc1ccc(C(NC(=O)C2CCN(Cc3ccc(Oc4ccccc4)cc3)CC2)c2ccccc2C)cn1 (stereo not drawn)	nt	0.5%	0.5	nt	nt	nt	8.1%
CCc1nc(N)c(C#N)c(-c2ccco2)c1C	9	-13%	0.8	12%	1.9	12	5.1%
Cc1ccc(S(=O)(=O)N2CCN(c3ccccc3)CC2)c(C)c1	3	-0.9%	2.1	2%	-6.4	29	-1.1%
COc1ccc(CCn2c(C)nc3c(c(=O)c4ccccc4n3C)c2=O)cc1	3	-0.9%	-0.1	20%	7.3	22	6.6%
Cn1c(C(=O)NCCN2CCOCC2)cc2c(=O)n(C)c3ccccc3c21	1	3.7%	0.3	-11%	-0.8	-4	0.5%
Cc1ccc(SCC(=O)N(C)C2CCS(=O)(=O)C2)cc1 (stereo not drawn)	11	0.7%	-0.3	14%	1.0	0	0.2%
CCOC(=O)C1(Cc2ccc(Cl)cc2)CCN(C(=O)c2sc(C)nc2C)CC1	-15	0.7%	0.4	14%	-8.2	24	0.9%
COc1cc(C(=O)N2CCCCC2c2cc(C(=O)N3CCOCC3)no2)cc(OC)c1C (stereo not drawn)	nt	-0.4%	-0.6	nt	nt	nt	1.3%
CCCc1cc(=O)[nH]c(Nc2ccc3c(c2)OCCO3)n1	-2	nt	3.4	8%	-3.1	8	1.1%
NNC(=O)c1ccccc1OCCOc1ccccc1	-8	-0.1%	8.4	12%	4.5	18	-0.2%
O=c1[nH]c(SCc2ccccc2Cl)nc2c1CCC2	-14	1.6%	3.2	5%	0.3	14	0.7%
Cc1cc(C)n(-c2nc(NCCCO)c3c4c(sc3n2)CCCC4)n1	-20	18µM*	1.4	-6%	4.5	1	-0.6%

Some entries already given, reduced to ClpP mod.
compound	ClpP mod
CCOC(=O)c1ccc(-n2c(C)nc3ccc(Br)cc3c2=O)cc1	0.7%
COCCCNc1ncnc2onc(-c3ccc(F)cc3)c12	5.6%
COc1ccc2cc(C(=O)Nc3ccc(F)cc3)sc(=O)c2c1OC	?
CCN(CC)C(=O)Cn1cc(C(=O)C(=O)Nc2ccc3c(c2)OCCO3)c2ccccc21	1.2%
Cc1ccc(-c2nnc(Nc3cccc(Br)c3)c3ccccc23)cc1S(=O)(=O)N1CCN(C)CC1	?
Cc1cccc(N2CCN(S(=O)(=O)c3ccc4c(c3)CCC(=O)N4)CC2C)c1 (stereo not drawn)	-0.6%
COCCCNc1nc2nonc2nc1N1CCN2CCCC2C1 (stereo not drawn)	-2.0%

Exported bar-delimited: entries from further up
structure | TRPV1 PAM | ClpP mod | TRPML1 ag | Sfp PPTase inh | Menin-MLL FL inh | TRPML1 blocker | PINK1 expr mod
NNC(=O)c1ccccc1OCCOc1ccccc1 | -8 | -0.1% | 8.4 | 12% | 4.5 | 18 | -0.2%
Cc1cccc(N2CCN(S(=O)(=O)c3ccc4c(c3)CCC(=O)N4)CC2C)c1 (stereo not drawn) | -19 | -0.6% | -0.3 | 20% | -0.7 | -4 | 14%[38.3 µM]
CCN(CC)C(=O)Cn1cc(C(=O)C(=O)Nc2ccc3c(c2)OCCO3)c2ccccc21 | 2 | 1.2% | 0.9 | 0% | 3.1 | -27 | 9.6%
CCOC(=O)C1(Cc2ccc(Cl)cc2)CCN(C(=O)c2sc(C)nc2C)CC1 | -15 | 0.7% | 0.4 | 14% | -8.2 | 24 | 0.9%
COc1ccc(CCn2c(C)nc3c(c(=O)c4ccccc4n3C)c2=O)cc1 | 3 | -0.9% | -0.1 | 20% | 7.3 | 22 | 6.6%
Cc1cc(C)n(-c2nc(NCCCO)c3c4c(sc3n2)CCCC4)n1 | -20 | 18µM* | 1.4 | -6% | 4.5 | 1 | -0.6%

(listing goes on)
SMILES	TRPV1 PAM	ClpP mod	TRPML1 ag	Sfp PPTase inh	Menin-MLL FL inh	TRPML1 blocker	PINK1 expr mod
CNc1cncc(-c2ccc(OC)cc2OC)n1	nt	5.1%	-0.9	nt	nt	nt	2.0%
CCCc1nnc(NC(=O)CSc2nnc(-c3ccco3)n2C)s1	11	nt	0.8	-5%	-2.9	7	1.5%
COc1ccc(-n2c(=O)c(-c3cccs3)nc3cnc(Nc4ccccc4)nc32)cc1	nt	nt	nt	43%[activator]	?	nt	4.5µM*
CCOC(=O)CNC(=O)Cc1ccc(Cl)cc1	-1	0.3%	-0.6	3%	4.3	-2	0.0%
CSc1oc(-c2ccccc2)nc1S(=O)(=O)c1ccc(F)cc1	11	-5.6%	1.5	-7%	2.8	2	-3.0%[38.3 µM]
CCCOC(=O)c1c(NC(=O)/C=C/c2cnn(C)c2C)sc(C(=O)OC)c1C	2	-6.3%	-0.2	8%	1.4	-1	?
NC(N)=S	nt	1.1%	-0.2	nt	nt	9	1.7%
Cc1ccc(S(=O)(=O)c2cn(CC(=O)Nc3cccc(Cl)c3)c3ccccc3c2=O)cc1	nt	-8.3%	2.0	nt	nt	-11	0.5%
O=C(CS(=O)(=O)Cc1ccccc1)N1CCN(Cc2ccc3c(c2)OCO3)CC1	-7	0.5%	1.0	5%	1.7	-5	-1.4%
NS(=O)(=O)c1cc(Cl)c(Cl)c(S(N)(=O)=O)c1	6	-2.6%	0.6	5%	3.4[24.8 µM]	5	1.4%
CCCCCCSc1cc(-c2nc3ccc(C)cn3c2NCc2ccccc2)ccc1OC	0	3.7%&5.2%	2.2&-0.1	nt	nt	-13	?
CCOC(=O)C1CCCN(C(=S)Nc2cc(C)cc(C)c2)C1 (stereo not drawn)	-8	-0.9%	2.1	-2%	0.4	-8	-2.7%
COc1ccc(CNS(=O)(=O)c2cc3c(cc2Cl)NC(=O)CO3)cc1	3	-2.0%&-0.1%	-0.4&-0.7	5%	3.0	14&2	2.3%&2.0%
COc1ccc(OC)c(-n2nnc(-c3nc(-c4ccc5c(c4)OCO5)no3)c2C)c1	nt	-5.5%	-0.4	nt	nt	-12	1.1%
Cc1ccc(C(=O)CCC(=O)OC(C)C(=O)NC2CCCCC2C)cc1 (stereo not drawn)	-30	-2.3%	2.6	nt	nt	-2	3.1%
Cn1cc(CN2C[C@H]3CC[C@H]2C3)c(-c2ccccc2F)n1	5	-0.8%	0.3	25%	-0.1	-16	1.4%
O=C(O)c1cccc(Nc2ccnc(Nc3cccc(C(=O)O)c3)n2)c1	-4	-9.2%	-0.5	8%	1.7	16	2.8%
C=CCSc1nc(O)c(CC)c(=O)n1C(C)CC (stereo not drawn)	3	-1.4%	0.8	-13%	-0.1	-4	0.7%[38.3 µM]
COc1cc2[nH]c(=O)n(CCC(=O)N3CCN(Cc4ccc5c(c4)OCO5)CC3)c(=O)c2cc1OC	10	4.4%	-0.1	22%	-4.0	9	3.2%
COCCCn1c(=NC(C)=O)c(C#N)cc2c(=O)n3cccc(C)c3nc21	15	nt	-0.2	3%	6.4	2	0.9%
Nn1c(-c2cccc(O)c2)nnc1-c1cccc(O)c1	nt	-2.0%	1.9	nt	nt	9	-0.3%
CCCn1c(NC(=O)C2COc3ccccc3O2)nc2ccccc21 (stereo not drawn)	-11	5.5%	2.7	37%[activator]	1.3	16	10%
Cc1cc(NC(=O)CS(=O)(=O)c2cn(C)c3ccccc23)no1	-2	-1.0%	0.1	7%	0.0	9	0.6%
O=C(CSc1nc2scc(-c3ccco3)c2c(=O)n1-c1ccccc1)NCC1CCCO1 (stereo not drawn)	3	-5.3%	0.3	1.3µM*	?	3	nt
